Screening results: PubChem BioAssay, National Center for Advancing Translational Sciences (NCATS)
Cruzain noTriton – cruzain (T. cruzi) inhibition without detergent. P25779. purified cruzain, Z-FR-AMC fluorescence, no detergent. Potency, µM, for the others: max response, negative = inhibition, usual class: inhibitors. 200,000 compounds, 2.3% hits. AID 1476;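 also: plate controls were enzyme without inhibitor for no effect and buffer without enzyme for full effect; nearly all actives have a fitted effect of over 40% in size; top concentration of the series not given in the record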
Target sequence (P25779 123-467 limits assumed): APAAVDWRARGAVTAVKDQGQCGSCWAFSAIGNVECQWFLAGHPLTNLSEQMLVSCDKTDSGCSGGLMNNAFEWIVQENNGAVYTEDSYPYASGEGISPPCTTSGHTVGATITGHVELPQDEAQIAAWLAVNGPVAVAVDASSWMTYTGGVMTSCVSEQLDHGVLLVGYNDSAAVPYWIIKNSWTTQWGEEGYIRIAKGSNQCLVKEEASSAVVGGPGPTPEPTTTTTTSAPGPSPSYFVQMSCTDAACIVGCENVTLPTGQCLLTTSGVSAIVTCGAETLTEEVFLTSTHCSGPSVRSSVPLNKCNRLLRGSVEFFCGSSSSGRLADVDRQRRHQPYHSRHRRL
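Detergent-free condition (0.00005% Triton X-100) in acetate buffer pH 5.5 with DTT. 1.5 nM enzyme and compound were pre-mixed 15 min, then 2 uM Z-FR-AMC substrate added; reaction progress from fluorescence change between first and third reads (60 s).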
RE007 growth inh – less growth of the S. pombe RE007 Vpr strain. S. pombe RE007 Vpr strain, BacTiter-Glo ATP luminescence, 24 h; control for the full effect not named in the record. Potency, µM (titrated, usually from 92.2 µM), for the others: at the highest dose activity change, negative = less growth. 360,000 compounds, 0.21% hits. AID 651644; active = well fitted falling curve with a large enough effect; inconclusive = small, poorly fitted or top-dose-only effect; inactive = no such curve, though single readings can be large or run the other way;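 also: % is scaled to controls: 0 for no effect and ±100 for the full control effect; nearly all actives have a fitted effect of over 50% in size; the assay follows cell death caused by Vpr and the record does not say whether a fall means rescue or toxicity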
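Fission yeast RE007 carrying one integrated HIV-1 vpr copy, seeded at OD 0.01 in PMG+AL medium with 23 nL pinned compound. Grown 24 h at 30 degrees; viability read by BacTiter-Glo luminescence after 5 min.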
LASV entry inh – inhibitors of Lassa virus binding or cell entry. 300,000 compounds, 1.2% hits. Lassa virus pseudotype entry inhibition, cell reporter; control for the full effect not named in the record. Potency, µM (doses to about 37.9 µM), for the others: top-dose activity change, negative = inhibition, actives largely listed as inhibitors; active means well fitted inhibition curve with a large enough effect; inconclusive means small, poorly fitted or top-dose-only effect, or effect the other way; inactive means flat fitted curve, though single readings scatter; tested in HEK293 cells; also: % is scaled to controls: 0 for no effect and ±100 for the full control effect; nearly all actives have a fitted effect of over 50% in size; luciferase read-out
NS1 function inh – influenza NS1 inhibition; S. cerevisiae slowed by influenza A NS1, growth recovery by OD600; Potency, µM (series often up to 46.1 µM), for the others: at the highest dose activity, positive = more growth; 270,000 compounds, 0.4% hits; active means well fitted rising curve with a large enough effect; inconclusive means small, poorly fitted or top-dose-only effect; inactive means no such curve, though single readings can be large or run the other way; also: nearly all actives have a fitted effect of over 50% in size
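OD600 was taken as the measure of yeast growth restored by compound in an NS1-expressing S. cerevisiae strain. Cells had been washed out of glucose medium and diluted 1:100 into galactose -URA medium, pH 6.0.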
SARS PLpro yeast – SARS-CoV PLP inhibition in yeast; S. cerevisiae expressing SARS-CoV PLpro, growth rescue; control for the full effect not named in the record; Potency, µM (doses to about 32.9 µM), for inactives: at the highest dose activity, positive = growth rescue; 330,000 compounds, 0.19% hits; AID 485353; active means well fitted rising curve with a large enough effect; inconclusive means small, poorly fitted or top-dose-only effect; inactive means no such curve, though single readings can be large or run the other way; also: 0% is about no effect; nearly all actives have a fitted effect of over 55% in size; growth read by luminescence after 48 h
StopGo reporter – FMDV 2A StopGo reporter, luciferase signal; human cells with a luciferase reporter of 2A StopGo recoding; control for the full effect not named in the record; 410,000 compounds, 1.2% hits; Potency, µM (titrated, usually from 57.9 µM), inactives show at the top dose signal change, negative = less light; active = well fitted falling curve with a large enough effect; inconclusive = small, poorly fitted or top-dose-only effect; inactive = no such curve, though single readings can be large or run the other way; tested in HEK293T cells; also: % is scaled to controls: 0 for no effect and ±100 for the full control effect; nearly all actives have a fitted effect of over 45% in size; luciferase light after 4 h
Marburg entry inh – blocks Marburg virus binding to or entry into cells; Marburg virus pseudotyped entry inhibition, cell reporter; control for the full effect not named in the record; about a third of the inactives were read at about 46 µM; Potency, µM (doses to about 37.8 µM), without a hit: at the highest dose activity change, negative = inhibition, actives largely listed as inhibitors; 300,000 compounds, 1.8% hits; AID 540276; active = well fitted inhibition curve with a large enough effect; inconclusive = small, poorly fitted or top-dose-only effect, or effect the other way; inactive = flat fitted curve, though single readings scatter; tested in HEK293 cells; about a fifth of its hits are not listed in these tables; also: % is scaled to controls: 0 for no effect and ±100 for the full control effect; luciferase read-out
Cruzain inh Det – inhibitors of Trypanosoma cruzi cruzain with detergent; Potency, µM, inactives show max response, negative = inhibition, usual class: inhibitors; P25779; AID 1478; 200,000 compounds, 0.43% hits; purified cruzain, Z-FR-AMC fluorescence, 0.01% Triton;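 also: plate controls were neutral wells for no effect and buffer without enzyme for full effect; nearly all actives have a fitted effect of over 40% in size; top concentration of the series not given in the record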
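Sodium acetate buffer (100 mM, pH 5.5) containing 5 mM DTT and 0.01% Triton X-100 hosted 1.5 nM cruzain and test compound for 15 min at room temperature. Cleavage of 2 uM Z-FR-AMC was then tracked by fluorescence.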
Numbers without * were called inactive; ? = inconclusive; nt = no result given; & = joins results of further samples; [ ] = remark or other dose. Unless noted, calls follow the shape of the dose curve; as a rule, active = well fitted curve in the direction sought with a large enough effect; inconclusive = small, poorly fitted or top-dose-only effect, or another doubt; inactive = no such curve, though single readings can be large; an effect the other way counts as inactive or inconclusive. Potency is read from the fitted curve at half-maximal effect.

SMILES | Cruzain noTriton | RE007 growth inh | LASV entry inh | NS1 function inh | SARS PLpro yeast | StopGo reporter | Marburg entry inh | Cruzain inh Det
O=C(NCC1c2ccccc2CCN1C(=O)CN1C(=O)c2ccccc2C1=O)C1CCCCC1 (stereo not given) | -1.5% | 10.4% | -0.2% | 0.2% | 5.5% | -10.8% | -2.7% | -2.3%
S=C(Nc1cccc(Cl)c1Cl)N1CCC2(CC1)OCCO2 | nt | -15.2% | ? | nt | -0.2% | 41.3%[activator] | ? | nt
COc1ccc(Nc2ncccc2C(=O)Nc2ccccc2)cc1 | 4.7% | ? | 2.0% | -17.1% | -27.9% | -8.9% | -9.1% | -5.6%
CC1CCCCN1C(=O)N[C@@H](Cc1ccccc1)C(=O)O (stereo not given in full) | 11.0% | 1.4% | 22.5%[14.3 µM] | -3.3% | 4.5% | -5.0% | 10.0% | 8.6%
O=C(NCc1ccccc1)c1cc2sccc2n1Cc1ccc(Cl)cc1 | -21.2% | nt | 10.9%[46.1 µM] | nt | nt | -1.0% | -10.7%[46.1 µM] | -4.2%
Cc1noc(C)c1COC(=O)c1ccccc1Oc1ccccc1 | 7.2% | 5.7% | -26.2% | -11.5% | 0.1% | -8.1% | ? | -9.7%
CCc1ccc(NC(=O)c2sc3nc(-c4ccccc4)cn3c2C)cc1 | -10.2% | nt | -0.8%[46.1 µM] | nt | nt | 9.3% | nt | -3.8%
CC(=O)Nc1ccc(C(=O)NCC2CCCCC2)cc1 | nt | 1.6% | nt | 0.6% | 2.1% | 21.5% | nt | nt
O=C(CCS(=O)(=O)c1ccccc1)Nc1ccccc1-c1nc2ccccc2s1 | 4.3% | -6.2% | 0.4% | 4.1% | 0.8% | ? | ? | -1.8%
COc1ccccc1NC(=O)CSc1nc2ccccc2c(=O)n1CCC(=O)NC1CCCCC1 | -7.7% | nt | -0.2%[46.1 µM] | nt | nt | -12.7% | nt | 1.5%
COc1cccc(/C=N/Nc2nccnc2Cl)c1O | nt | 35.5µM* | 2.06µM* | -61.5% | -6.1% | 12.6µM* | 1.64µM* | nt
O=C(Nc1ccccc1Br)c1cc(S(=O)(=O)NC2CCCCC2)ccc1F | 14.0% | nt | 11.4%[46.1 µM] | nt | nt | 8.2% | nt | -24.3%
COc1ccc(C(=O)Nc2ccc(S(=O)(=O)N(Cc3ccccc3)c3ccccc3)cc2)cc1 | ? | nt | -26.6%[46.1 µM] | nt | nt | ? | ? | -2.0%
CCSc1nc2c([nH]c3ccccc32)c(=O)n1CC | 3.1% | nt | 17.9%[46.1 µM] | nt | nt | -12.8% | nt | 2.3%
CCCn1c(CN(Cc2ccccc2)Cc2ccccc2)nc2c1c(=O)n(C)c(=O)n2C | ? | 3.2% | -15.6% | -52.6% | -13.8% | 25.1µM* | ? | -5.1%
CCCCc1cc(=O)oc2cc(C)c(CN3CCCC3)c(O)c12 | ? | 18.8% | -4.5% | -3.5% | 0.1% | 5.6% | -28.2% | -6.5%
COC(=O)c1ccccc1NC(=O)C1CCCN(c2ncnc3onc(C)c23)C1 (stereo not given) | 1.0% | nt | 24.9%[46.1 µM] | nt | nt | ? | nt | -0.1%
CCN1CCN(c2ccc(N3CCN(S(=O)(=O)c4ccc(C)c([N+](=O)[O-])c4)CC3)nn2)CC1 | nt | -15.8% | -8.6% | nt | -12.5% | -11.4% | -7.7% | nt
CC1Cc2ccccc2N1C(=O)c1ccc(N2CCCC2)c([N+](=O)[O-])c1 (stereo not given) | -1.0% | -9.3% | ? | 15.2% | -19.4% | ? | ? | -8.5%
COc1ccc(CNC(=O)C2CCCN(S(=O)(=O)N3CCC(C)CC3)C2)c(OC)c1 (stereo not given) | nt | -9.2% | -12.4%[46.1 µM] | -7.9% | 0.5% | 7.2% | 1.4%[46.1 µM] | nt
O=C(NCCN1CCN(c2ccccc2)CC1)Nc1cccc(Br)c1 | -11.2% | -17.5% | 7.9%[46.1 µM] | -3.2% | -0.2% | -18.2%&-2.4% | -27.6%&-27.6%[46.1 µM] | -1.5%
COc1ccc(NC(=O)C2=CC(c3ccc(C)cc3)=NS(=O)(=O)N2C)cc1 | nt | 8.6% | nt | -4.6% | -0.5% | ? | nt | nt
Cc1ccc2nc(NC(=O)CSc3nnc(C)c(=O)n3N)sc2c1 | -17.5% | 11.7% | ? | 2.2% | 14.6% | 18.8% | 5.7% | 0.9%
CC(C)c1nc2ccc(C(=O)NCc3ccccc3Br)cc2o1 | -2.3% | nt | 3.9%[46.1 µM] | nt | nt | 17.8% | nt | -10.8%
O=C(O)c1ccc(CNCc2cccc(Cl)c2)cc1 | nt | -6.9% | -4.2% | nt | -0.2% | 2.3% | ? | nt
CCN(CC)S(=O)(=O)c1cccc(NC(=O)COc2ccc(F)cc2Br)c1 | nt | 0.3% | -22.1% | nt | -7.3% | ? | ? | nt
O=C(Cn1c(C2CC2)nc2ccccc2c1=O)Nc1ccc(Br)cc1 | 3.8% | -1.8% | -22.3% | -7.6% | 0.6% | -1.9% | ? | 4.4%
O=C(Cc1ccccc1)Nc1sc2c(c1C(=O)Nc1ccccc1Cl)CCCCC2 | -6.4% | nt | 18.0%[46.1 µM] | nt | nt | -11.7% | nt | -1.8%
CC(C)CCn1c(=O)c2ccccc2c2ccccc2c1=O | -8.2% | -7.8% | -14.8% | -22.6% | -32.1% | -27.9% | -21.1%[46.1 µM] | -2.8%
O=C(Nc1ccc2oc(-c3ccccc3F)nc2c1)c1ccc2c(c1)OCCO2 | 2.5% | 16.4% | 0.1% | -13.0% | -3.6% | 35.5µM* | ? | -2.6%
CC1CC1C(=O)OCc1cc(=O)n2cc(Br)ccc2n1 (stereo not given) | -3.1% | -12.7% | ? | -8.9% | -10.2% | -12.0% | -0.5% | 0.8%
COc1cccc(CNS(=O)(=O)c2csc(C(N)=O)c2)c1 | nt | -9.8% | nt | -10.7% | 4.2% | 22.0% | nt | nt
O=S(=O)(Cc1ccccc1)c1nc2ccccc2n1Cc1ccccn1 | nt | 0.5% | 13.1% | nt | -8.6% | -2.8% | -5.6% | nt
O=C(Nc1cc(C(F)(F)F)ccc1N1CCCCC1)c1ccc(Br)o1 | -24.8% | -5.0% | -17.0% | -2.4% | 0.7% | 16.3% | -25.7% | -2.7%
COC(=O)Cc1c[nH]c2ccc(OCC(O)CNC(C)C)cc12 (stereo not given) | 3.7% | 6.6% | 9.6% | -76.7% | 0.7% | nt | 19.7% | 5.0%
O=C(Nc1cccc(NC(=O)c2ccc(Br)cc2)c1)c1ccccc1 | ? | -2.7% | -5.7% | 0.9% | 0.0% | -11.5%&-14.1% | 0.1%&0.1% | -2.9%
O=C(NCC1CCCN(C(=O)CN2CCCCC2)C1)c1ccccc1Cl (stereo not given) | nt | -11.0% | 35.4%[46.1 µM] | 0.0% | -2.1% | 27.9% | 12.8%[46.1 µM] | nt
Cc1ccc(CN(Cc2ccco2)C(=O)COc2ccccc2C)cc1 | -29.9% | nt | ? | nt | nt | -8.5% | 10.0%[46.1 µM] | -10.1%
Cc1ccc(C(=O)Nc2nnc(S(=O)(=O)N3CCC(C)CC3)s2)cc1 | nt | -1.6% | ? | 9.5% | 28.8% | 20.7% | 13.4%[46.1 µM] | nt
CCCCN(C(=O)CCC(=O)Nc1cc(C)on1)C(C(=O)NC(C)(C)C)c1ccccc1Cl (stereo not given) | nt | -10.9% | 13.4%[46.1 µM] | 1.7% | -1.0% | -1.4% | 2.5%[46.1 µM] | nt
O=C1CCCN1CCCNC(=S)Nc1ccc(Br)cc1Cl | nt | 0.9% | nt | 1.4% | -1.4% | 47.1%[activator] | nt | nt
COc1ccccc1OCCNC(=O)CC(NC(C)=O)c1ccccc1 (stereo not given) | nt | 3.4% | 14.6%[46.1 µM] | 6.6% | -6.0% | -7.8% | -0.1%[46.1 µM] | nt
CCOC(=O)c1cnc(SCC(=O)N2CCN(C(=O)c3ccco3)CC2)nc1N | -7.4% | -3.9% | ? | -4.0% | -0.2% | 2.1% | ? | -0.2%
Cc1ccc(C)c(S(=O)(=O)N2CCN(CC(=O)N3CCc4ccccc4C3)CC2)c1 | 8.9% | -9.6% | -25.0% | -14.0% | 4.6% | -21.8% | -11.0% | -7.1%
COc1cccc(/C=C(/CC(=O)Nc2ccc(N3CCOCC3)cc2)c2nc3ccccc3s2)c1 | -7.2% | -17.3% | -12.2% | 18.4% | 16.7% | 80.5%[activator] | ? | -4.9%
CCN1CCN(C(c2ccc(Cl)cc2)c2c(O)cc(C)n(CCOC)c2=O)CC1 (stereo not given) | ? | nt | -1.3%[46.1 µM] | nt | nt | -15.4% | nt | 0.4%
CCOc1ccc(N2CSC(=S)N(c3ccc(OCC)cc3)C2)cc1 | nt | -1.5% | nt | 0.1% | 0.2% | 3.5% | nt | nt
Cc1ccccc1-c1nnc(SCc2ccccc2)o1 | 2.9% | ? | 17.8% | -59.8% | -16.9% | 50.1%[activator] | ? | -0.2%
CC1CCN(C(=O)c2cccc(NC(=O)c3nsc4ccccc34)c2)CC1 | 5.6% | nt | ? | nt | nt | 28.6% | nt | 0.6%
CCOC(=O)c1ccc(NC(=O)NC2CC3CCC(C2)N3)cc1 (stereo not given) | nt | 4.7% | nt | 12.3% | -1.0% | -10.4% | nt | nt
CC(C)c1ccc(OCc2ccc(C(=O)N3CCN(c4ccccn4)CC3)cc2)cc1 | 21.6% | 16.2% | ? | -70.7% | -34.9% | ? | ? | -6.0%
Cc1ccc(N2C(=O)C3Sc4[nH]c(=O)sc4C(c4ccccc4)C3C2=O)cc1 (stereo not given) | -8.7% | 10.8% | 1.3% | 17.1% | -0.9% | -24.5% | 3.7% | -6.3%
COc1ccc(NC(=O)C#Cc2ccccc2)cc1 | nt | -13.3% | ? | -78.5% | -14.6% | 49.5%[activator] | ? | nt
Cc1ccc(Nc2cc(C)nc3nncn23)c(C)c1 | -2.4% | nt | 2.4%[46.1 µM] | nt | nt | -8.9% | 0.5%[46.1 µM] | 1.2%
COc1ccc(C(=O)/C=C/Nc2ccccn2)c(OC)c1 | nt | ? | ? | -46.3% | -3.1% | -2.6% | ? | nt
O=C(N/N=C1\CCS(=O)(=O)c2ccc(F)cc21)c1ccc(O)cc1 | nt | 7.7% | nt | 2.1% | 0.8% | 4.1% | nt | nt
